Screening results (PubChem BioAssay)
GIRK2 act: GIRK2 channel activation; 0.05% of 63,000 active; HEK293-GIRK2 thallium flux, Thallos fluorescence; calls only for hits at 25 µM; P48051; AID 1259325;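 active = among the strongest 0.2% of first-round signals and kept after retests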;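 also: first round at about 10 µM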
Target sequence (P48051 whole entry, looked up): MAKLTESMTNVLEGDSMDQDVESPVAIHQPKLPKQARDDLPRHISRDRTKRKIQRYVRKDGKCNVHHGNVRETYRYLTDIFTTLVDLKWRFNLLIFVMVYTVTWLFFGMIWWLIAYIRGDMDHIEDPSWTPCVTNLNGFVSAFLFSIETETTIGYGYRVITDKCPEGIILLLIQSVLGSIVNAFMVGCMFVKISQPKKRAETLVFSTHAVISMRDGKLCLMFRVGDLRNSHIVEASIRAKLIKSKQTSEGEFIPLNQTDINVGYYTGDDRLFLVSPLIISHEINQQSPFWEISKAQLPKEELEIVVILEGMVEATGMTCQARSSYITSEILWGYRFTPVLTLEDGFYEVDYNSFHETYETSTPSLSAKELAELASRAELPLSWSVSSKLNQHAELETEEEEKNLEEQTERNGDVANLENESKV
Calls only. These rows are one share of the data, so the mix of outcomes need not match the whole.

Preview (5 entries):
O=C(Cc1ccc(F)cc1)N1CCCC(c2nnc(-c3ccc4c(c3)OCO4)o2)C1 (stereo not given) was read as GIRK2 act inactive.
Cc1cc(NCCCN2CCOCC2)n2nc(C(F)(F)F)nc2n1 was read as GIRK2 act inactive.
Screening COc1ccc(S(=O)(=O)NCCC(=O)NCc2cccnc2)cc1N(C)S(C)(=O)=O returned GIRK2 act inactive.
`COc1ccc(F)cc1S(=O)(=O)N1CCc2nc(NC(=O)c3ccoc3)sc2C1` gave GIRK2 act inactive.
For O=C1NC(=NCCc2ccc(F)cc2)S/C1=C\c1ccc2ncccc2c1 the results were GIRK2 act inactive.

All compounds of this part, repeating the preview:
O=C(Cc1ccc(F)cc1)N1CCCC(c2nnc(-c3ccc4c(c3)OCO4)o2)C1 (stereo not given) was read as GIRK2 act inactive.
Cc1cc(NCCCN2CCOCC2)n2nc(C(F)(F)F)nc2n1 was read as GIRK2 act inactive.
Screening COc1ccc(S(=O)(=O)NCCC(=O)NCc2cccnc2)cc1N(C)S(C)(=O)=O returned GIRK2 act inactive.
`COc1ccc(F)cc1S(=O)(=O)N1CCc2nc(NC(=O)c3ccoc3)sc2C1` gave GIRK2 act inactive.
For O=C1NC(=NCCc2ccc(F)cc2)S/C1=C\c1ccc2ncccc2c1 the results were GIRK2 act inactive.
Screening CCCCC[C@H](O)/C=C/[C@H]1C(=O)C[C@H](O)[C@@H]1C/C=C\CCCC(=O)NCCO returned GIRK2 act inactive.
Screening COc1cccc(-n2cnc3c(N/N=C\c4ccncc4)ncnc32)c1 returned GIRK2 act inactive.
For Cc1ccccc1C(=O)N1CCN(S(=O)(=O)c2cc3c4c(c2)CCN4C(=O)CC3)CC1 the results were GIRK2 act inactive.
COc1ccc(Nc2c(-c3nc(C)no3)cnc3nc(C)ccc23)cc1Cl was read as GIRK2 act inactive.
Screening CCC(=O)N1CCCc2ccc(NC(=O)c3cc(OC)cc(OC)c3)cc21 returned GIRK2 act inactive.
O=c1[nH]c2nc(NCCCN3CCc4ccccc4C3)ncc2c(=O)n1Cc1ccccc1 was read as GIRK2 act inactive.
Screening CC(C)OC(=O)CCC/C=C\C[C@@H]1C(/C=C/C(F)(F)COc2ccccc2)[C@H](O)C[C@@H]1O (stereo not given in full) returned GIRK2 act inactive.
Screening COc1ccc(N2C(=O)C(O)=C(S(=O)(=O)c3ccc(C)cc3)C2c2ccccc2)cc1 (stereo not given) returned GIRK2 act inactive.
CN1[C@@H](CC(=O)c2ccccc2)CCC[C@H]1C[C@H](O)c1ccccc1 was read as GIRK2 act inactive.
Screening COc1cccc(S(=O)(=O)NCC(=O)Nc2ccc(Cl)c(C(F)(F)F)c2)c1 returned GIRK2 act inactive.

Reprinted at random: 6 compounds from above.
Screening CCC(=O)N1CCCc2ccc(NC(=O)c3cc(OC)cc(OC)c3)cc21 returned GIRK2 act inactive.
Screening COc1ccc(S(=O)(=O)NCCC(=O)NCc2cccnc2)cc1N(C)S(C)(=O)=O returned GIRK2 act inactive.
Cc1cc(NCCCN2CCOCC2)n2nc(C(F)(F)F)nc2n1 was read as GIRK2 act inactive.
For O=C1NC(=NCCc2ccc(F)cc2)S/C1=C\c1ccc2ncccc2c1 the results were GIRK2 act inactive.
For Cc1ccccc1C(=O)N1CCN(S(=O)(=O)c2cc3c4c(c2)CCN4C(=O)CC3)CC1 the results were GIRK2 act inactive.
O=C(Cc1ccc(F)cc1)N1CCCC(c2nnc(-c3ccc4c(c3)OCO4)o2)C1 (stereo not given) was read as GIRK2 act inactive.

New compounds follow.
Screening CCN(CC)C(=O)Oc1ccc2c(=O)c(Oc3ccccc3Br)coc2c1 returned GIRK2 act inactive.
O=C(Nc1nc2c(s1)CN(C(=O)CSc1ccc(F)cc1)CC2)c1ccco1 was read as GIRK2 act inactive.
O=C(NCCOc1ccccc1)c1cccc([N+](=O)[O-])c1 was read as GIRK2 act inactive.
`CCCc1nnsc1C(=O)NCCC1CCCCN1S(=O)(=O)c1cccs1` (stereo not given) gave GIRK2 act inactive.
For O=C(c1ccc(Oc2ncccn2)cc1)N1CCN(c2ccc(-n3cccc3)nn2)CC1 the results were GIRK2 act inactive.
For CCOc1ccc(NC(=O)COc2nc(CC)nc3ccccc23)cc1 the results were GIRK2 act inactive.
For Cc1cc(NC(=O)C(C)Oc2ccccc2)n(-c2nc3c(cnn3-c3ccccc3)c(=O)[nH]2)n1 (stereo not given) the results were GIRK2 act inactive.
For O=C(NCc1ccc(F)cc1)N1CCN(Cc2nnnn2-c2cccc(F)c2)CC1 the results were GIRK2 act inactive.
Screening O=C(NCC1CCN(Cc2ccsc2)CC1)c1cc2ccccc2o1 returned GIRK2 act inactive.
For COc1ccc(CNC(=O)c2ccc(Oc3nccnc3N3CCOCC3)cc2)cc1OC the results were GIRK2 act inactive.
O=C(Cn1c(=O)oc2ccccc21)N1CCN(S(=O)(=O)C2CC2)CC1 was read as GIRK2 act inactive.
Screening Cc1cc(NC(=O)CCCSc2ccccc2)no1 returned GIRK2 act inactive.
Screening O=c1ccc(-c2nc(-c3ccc(Cl)cc3)no2)cn1Cc1ccccc1F returned GIRK2 act inactive.
O=C(c1cccs1)N1CCN(Cc2nnnn2-c2ccc(Cl)cc2)CC1 was read as GIRK2 act inactive.
`COc1ccc(S(=O)(=O)N(C)c2ccsc2C(=O)NCc2cc(F)cc(F)c2)cc1` gave GIRK2 act inactive.
For O=c1ccc(-c2ccccc2)nn1Cc1nc(-c2ccc3c(c2)OCO3)no1 the results were GIRK2 act inactive.
`Cc1noc(C)c1CC(=O)NCC1CCC(c2nc3ccccc3n2C)CC1` (stereo not given) gave GIRK2 act inactive.
`COc1ccc(C2CC(c3ccc(Cl)cc3)=NN2C(C)=O)cc1O` (stereo not given) gave GIRK2 act inactive.
For Cc1noc(C)c1C(=O)N1CCN(Cc2nnnn2-c2ccccc2)CC1 the results were GIRK2 act inactive.
For CC1(C)Cc2cccc(OCC(=O)N3CC(c4nc(-c5cccs5)no4)C3)c2O1 the results were GIRK2 act inactive.
N#C/C(=C\c1c(F)c(F)c(F)c(F)c1F)c1nc2ccccc2[nH]1 was read as GIRK2 act inactive.
`Cc1ccc(C)c(S(=O)(=O)N2CCN(c3ccc(C)nn3)CC2)c1` gave GIRK2 act inactive.
For CC1(C)CC(NC(=O)c2ccccc2C(=O)O)CC(C)(C)N1 the results were GIRK2 act inactive.
Screening O=C(c1ccc(Cl)c(S(=O)(=O)N2CCCCC2)c1)N1CCCc2ccccc21 returned GIRK2 act inactive.
For Cc1cn2c3c(=O)n(CCN4CCOCC4)c(=O)n(C)c3nc2n1C1CCCC1 the results were GIRK2 act inactive.
For COc1ccc2c(=O)c(Oc3ccc(C(=O)NCCc4cccs4)cc3)coc2c1 the results were GIRK2 act inactive.
For COc1ccccc1OCCNC(=O)Cn1cnc2c([nH]c3ccccc32)c1=O the results were GIRK2 act inactive.
`O=C(CN1CCN(c2ccc(F)cc2)C1=O)NCc1ccccn1` gave GIRK2 act inactive.
COc1ccc(Cl)cc1C(=O)N1CCC(C(=O)Nc2nccs2)CC1 was read as GIRK2 act inactive.
O=C(Nc1nc(C(=O)NCCCn2ncccc2=O)co1)c1ccsc1 was read as GIRK2 act inactive.
Screening CC(=O)Nc1cccc(C2=NN(C(C)=O)C(c3ccc4nccnc4c3)C2)c1 (stereo not given) returned GIRK2 act inactive.
For O=C(c1nccnc1-c1nc2ccccc2s1)N1CCc2ccccc21 the results were GIRK2 act inactive.
`Cn1nc(C(=O)N2CCC(Oc3ccc(C(F)(F)F)cn3)CC2)ccc1=O` gave GIRK2 act inactive.
Screening O=C(CSc1nnc(Cn2ccc(=O)[nH]c2=O)o1)Nc1ccccc1C(F)(F)F returned GIRK2 act inactive.
For O=c1n(CCNS(=O)(=O)c2ccc(F)c(Cl)c2)nc(C2CC2)n1-c1ccccc1 the results were GIRK2 act inactive.
Screening COc1cc2c(cc1OC)C1(O)C(=O)c3ccc4c(c3OC1CO2)C1C(O4)C1(C)C (stereo not given) returned GIRK2 act inactive.
Screening CC(C)n1c(CN2CCCCC2)nc2ccccc21 returned GIRK2 act inactive.
For COc1ccc(/C(C)=N\Nc2nc3c(c(=O)[nH]c(=O)n3C)n2CC(C)O)cc1 (stereo not given) the results were GIRK2 act inactive.
O=C(Nc1nc2c(s1)CN(C(=O)c1cccs1)CC2)NC1CCCC1 was read as GIRK2 act inactive.
For CC(C)(C)C(=O)Oc1ccc2c(c1)O/C(=C\c1ccc3c(c1)OCO3)C2=O the results were GIRK2 act inactive.
O=C(c1ccccc1)N1CCCc2ccc(NS(=O)(=O)c3cccc(F)c3)cc21 was read as GIRK2 act inactive.
O=C(/C=C\c1ccccc1)N1CCCC(c2nnc(-c3cccs3)o2)C1 (stereo not given) was read as GIRK2 act inactive.
COc1ccc(-c2coc3c4c(ccc3c2=O)OCN(CCCO)C4)cc1 was read as GIRK2 act inactive.
Screening COc1ccc2c(c1)O/C(=C\c1cccc(O)c1)C2=O returned GIRK2 act inactive.
`COc1ccc(C(=O)N2CCC(C(=O)NCc3nc(C)no3)CC2)cc1OC` gave GIRK2 act inactive.
COCCn1nnn(-c2ccc(NC(=O)c3ccccc3Br)cc2)c1=O was read as GIRK2 act inactive.
For COc1ccc(NC(=O)c2nnn(-c3ccccc3)c2C(C)C)cc1 the results were GIRK2 act inactive.
For Cc1cc(C)n(-c2cc(SCC(=O)Nc3cccc(Cl)c3F)ncn2)n1 the results were GIRK2 act inactive.
For COc1cccc(Oc2c(C)oc3cc(OS(C)(=O)=O)ccc3c2=O)c1 the results were GIRK2 act inactive.
Cn1nc(-c2ccc(F)cc2)cc1C(=O)NCC(c1ccsc1)N1CCOCC1 (stereo not given) was read as GIRK2 act inactive.
`COc1ccc(C)cc1NC(=O)Cn1nc(N(C)C)c2ccccc2c1=O` gave GIRK2 act inactive.
O=C(NCc1ccccc1OC(F)(F)F)c1ccc(OCC(=O)C2CC2)cc1 was read as GIRK2 act inactive.
`O=C(c1ccc(F)cc1Cl)N1CCN(c2cc(-n3cccn3)ncn2)CC1` gave GIRK2 act inactive.
`N#Cc1ccc2c(-c3ccnc(NC4CC4)n3)c(-c3ccc(F)cc3)nn2c1` gave GIRK2 act inactive.
O=C(/C=C/c1ccccc1)Nc1cnc(N2CCN(c3ccccn3)CC2)nc1 was read as GIRK2 act inactive.
CSc1ccccc1C(=O)N1CCC2(CC1)OCCS2 was read as GIRK2 act inactive.
For CSc1ccccc1NC(=O)C(c1ccccc1)n1cccc1 (stereo not given) the results were GIRK2 act inactive.
Cc1nnc(SCC(N)=O)c2c1cnn2-c1ccccc1 was read as GIRK2 act inactive.
For O=C(N(c1ccc(Cl)cc1)C1C=CS(=O)(=O)C1)C(F)(F)F (stereo not given) the results were GIRK2 act inactive.
`Cc1cc(=Nc2ccc([N+](=O)[O-])cc2)n2ccsc2n1` gave GIRK2 act inactive.
COc1ccc(NC(=O)c2ccccc2Cl)cc1N1CCCC1=O was read as GIRK2 act inactive.
Cc1ccc(S(=O)(=O)N(C)CC(=O)N2CCOCC2)cc1 was read as GIRK2 act inactive.
Screening CCCS(=O)(=O)N1CCc2ccc(NC(=O)c3cccn(C)c3=O)cc2C1 returned GIRK2 act inactive.
`O=C(Nc1ccc2c(c1)OCCO2)c1c(O)c2cnn(Cc3ccccc3)c2[nH]c1=O` gave GIRK2 act inactive.
`CCOC(=O)Cn1c(=O)c2c(nc3n(C(C)c4ccccc4)c(C)c(C)n23)n(C)c1=O` (stereo not given) gave GIRK2 act inactive.
Screening Cc1cc(C)n(CC(=O)Nc2ccc(C(=O)N3CCN(C(=O)OC(C)(C)C)CC3)cc2)c(=O)c1C#N returned GIRK2 act inactive.
`COc1ccc(-c2ccc(=O)n(CCNS(=O)(=O)c3cccc(F)c3)n2)cc1` gave GIRK2 act inactive.
`COCCN(Cc1ccncc1)S(=O)(=O)c1ccc(N2CCCCS2(=O)=O)cc1` gave GIRK2 act inactive.
CCOc1ccccc1NC(=O)CN1CCN(c2ccc3c(c2)OCO3)C1=O was read as GIRK2 act inactive.
For COc1cccc(-c2cc(C(=O)N3CCC(NC(=O)c4cc(C)cc(C)c4)CC3)[nH]n2)c1 the results were GIRK2 act inactive.
`CC(C)c1nnc(SCC(=O)Nc2ccc3c(c2)OCO3)c2c1cnn2-c1ccc(F)cc1` gave GIRK2 act inactive.
For CC(C)(C)c1csc(CN2CCN(C(=O)c3ccc([N+](=O)[O-])o3)CC2)n1 the results were GIRK2 act inactive.
N#Cc1ccc(COCC2CCN(Cc3cccc4ccccc34)CC2)cc1 was read as GIRK2 act inactive.
COc1ccc(NC(=O)Cn2c(=O)n(CC(=O)NCc3ccc(C)cc3)c(=O)c3sccc32)cc1 was read as GIRK2 act inactive.
Screening CCCNC(=O)Cn1cc(S(=O)(=O)N2CCCCC2)ccc1=O returned GIRK2 act inactive.
Screening Cc1cccc(Cn2c(N3CCC(C(N)=O)CC3)nc3c2c(=O)n(C)c(=O)n3C)c1 returned GIRK2 act inactive.
Screening O=C(Cn1nc(-c2ccccc2)c2sc(N3CCCCC3)nc2c1=O)Nc1ccccc1F returned GIRK2 act inactive.
For COc1ccc(NC(=O)c2ccc(S(=O)(=O)N(C)C3CCCCC3)cc2)cc1 the results were GIRK2 act inactive.
Screening COc1ccc(CNC(=O)N2CCN(Cc3nnnn3-c3ccc(F)c(F)c3)CC2)cc1 returned GIRK2 act inactive.
For CCN(CC)S(=O)(=O)c1ccc(-c2nc(C#N)c(N3CCc4ccccc4C3)o2)cc1 the results were GIRK2 act inactive.
Cc1cc(C)cc(Nc2nn3c(=O)c4cc5c(cc4nc3s2)OCO5)c1 was read as GIRK2 act inactive.
`COC(=O)c1c(S(=O)(=O)NCc2ccc(C)cc2)n[nH]c1C` gave GIRK2 act inactive.
Screening CC(=O)c1cccc(NC(=O)c2ccc3nccnc3c2)c1 returned GIRK2 act inactive.
For COc1ccccc1CNc1nccn(Cc2ccc(Cl)cc2)c1=O the results were GIRK2 act inactive.
COc1ccc(/C=C/c2nn3c(-c4cccc(Br)c4)nnc3s2)cc1 was read as GIRK2 act inactive.
C[C@@H](CN1CCC(n2c(=O)[nH]c3cc(Cl)ccc32)CC1)NC(=O)c1ccc2ccccc2c1 was read as GIRK2 act inactive.
For Cn1ccnc1SCC1CCN(C(=O)COc2ccccc2)CC1 the results were GIRK2 act inactive.
Screening CC(O)(CNC(=O)C(=O)Nc1cc(Cl)ccc1C#N)c1ccco1 (stereo not given) returned GIRK2 act inactive.

A run of entries from further up, for reference:
`N#Cc1ccc2c(-c3ccnc(NC4CC4)n3)c(-c3ccc(F)cc3)nn2c1` gave GIRK2 act inactive.
O=C(/C=C/c1ccccc1)Nc1cnc(N2CCN(c3ccccn3)CC2)nc1 was read as GIRK2 act inactive.
